# Mtb bLac sens: beta-lactam sensitization of Mtb H37Rv | M. tuberculosis H37Rv growth with meropenem, percent inhibition; hits of this screen are not shown here | actives 0.27% (n = 330,000) | AID 434955 | inhibition, % at 25 µM;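 active = about 74% or more and at least 40 points above the plate without the antibiotic, then above 30% in a dose series; inconclusive = first-round hits that could not be retested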;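 note: growth measured after seven days incubation then overnight dye step; 0% = bacteria only wells and 100% = bacteria with antibiotic; twin plates without the antibiotic show which effects depend on it; some results filed as inactive read as strong as hits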
# RecA intein inh: blocks M. tuberculosis RecA intein splicing; P9WHJ3; actives 0.75% (n = 290,000); cell-free RecA intein splicing, fluorescence; inhibition, %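 (about 9 µM by stock and volumes)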; in the data active = inhibition above about 30%; inconclusive = no clear call, values can overlap the other calls;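 note: 0% = vehicle wells and 100% = reference inhibitor control wells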
# Target sequence (P9WHJ3 whole entry, looked up): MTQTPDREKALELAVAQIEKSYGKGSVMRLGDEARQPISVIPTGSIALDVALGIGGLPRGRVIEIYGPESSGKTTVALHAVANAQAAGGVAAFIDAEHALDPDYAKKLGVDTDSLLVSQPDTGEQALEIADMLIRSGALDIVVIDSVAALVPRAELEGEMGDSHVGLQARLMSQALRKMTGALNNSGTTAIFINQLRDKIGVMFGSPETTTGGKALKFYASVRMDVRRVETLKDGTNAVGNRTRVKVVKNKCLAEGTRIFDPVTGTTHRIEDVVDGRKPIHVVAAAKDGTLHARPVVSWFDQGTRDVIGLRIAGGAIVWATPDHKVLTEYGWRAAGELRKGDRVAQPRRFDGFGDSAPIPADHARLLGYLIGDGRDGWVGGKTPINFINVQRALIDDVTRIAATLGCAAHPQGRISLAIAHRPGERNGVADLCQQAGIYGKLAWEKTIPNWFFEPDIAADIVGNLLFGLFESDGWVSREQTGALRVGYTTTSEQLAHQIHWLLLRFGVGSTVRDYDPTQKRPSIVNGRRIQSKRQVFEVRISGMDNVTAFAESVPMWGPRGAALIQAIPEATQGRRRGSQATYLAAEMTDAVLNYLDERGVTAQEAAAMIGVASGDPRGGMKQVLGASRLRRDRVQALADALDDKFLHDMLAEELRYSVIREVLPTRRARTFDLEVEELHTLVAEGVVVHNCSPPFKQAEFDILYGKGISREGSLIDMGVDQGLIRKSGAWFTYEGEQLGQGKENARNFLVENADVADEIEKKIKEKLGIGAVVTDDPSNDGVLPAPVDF
# Mtb H37Rv: M. tuberculosis H37Rv growth inhibitors, H37Rv strain (AID 1626); M. tuberculosis H37Rv growth inhibition; higher % means a stronger effect; inhibition, % at 10 µM; hits with a dose series show IC50 in µM; actives 0.95% (n = 220,000);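 active = confirmed in a dose series; inconclusive = inhibition above 80% but not taken into the dose series; inactive = below 80% or under 30% at every dose of the series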;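 note: bacteria incubated seven days before Alamar blue readout; 0% = bacteria only wells and 100% = bacteria with antibiotic wells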
# Arbovirus inh: antivirals against arbovirus infection | inhibition, % at 10 µM | actives 0.37% (n = 200,000) | AID 1251 | arbovirus infection cell-based antiviral screen;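 active = inhibition from about 30%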;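 note: bluetongue infection of BSR cells; cell survival read as ATP light after 72 h; 0% = infected wells without compound and 100% = uninfected wells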
# YopH inh: YopH (Yersinia) phosphatase inhibition | fluorescence Ex485/Em525 | inhibition, %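 (about 10 µM by stock and volumes)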 | actives 0.16% (n = 140,000) | AID 898;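 active = inhibition of 50% or more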;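 note: controls were vehicle for no effect and minimum signal wells for full effect; inactives centre near -20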
# Arbovirus inh repeat: also measured in Arbovirus inh; calls as there; inhibition, %; measured here: 10K subset replicate screen; many hits read low in the repeat;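 first of two repeat runs on a subset; 0% = infected and 100% = uninfected wells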
# * = called active by the depositor; ? = inconclusive; nt = no result given. An excerpt, so the mix of outcomes need not match the whole.
SMILES,Mtb bLac sens,RecA intein inh,Mtb H37Rv,Arbovirus inh,YopH inh,others
Cc1cccc(CNCCc2ccccc2)n1,-1,-5.5,0%,9,-12,
CCOC(=O)c1ccc(Nc2nc(=O)c3cccnc3s2)cc1,35,-1.7,12%,8,-32,
CC(=O)Nc1cc(C(=O)N2CCc3ccccc3C2)ccc1Sc1ccc(Cl)cc1,-7,13,-3%,1,-26,
COC(=O)c1c(C(=O)OC)c(-c2cccc(Cl)c2)n2c1CS(=O)(=O)C2,-8,0.7,nt,nt,nt,
CCCCSc1nnc(-c2cc(Br)ccc2N)c(=O)[nH]1,?,1.9,-3%,14,-38,
COc1ccc(N(C(=O)c2ccco2)C(C(=O)NC2CCCC2)c2ccncc2)cc1 (stereo unspecified),1,1.7,nt,nt,nt,
O=C(OCc1nnc(-c2ccccc2)o1)c1ccc2c(c1)OCO2,1,nt,-3%,7,-20,
N#C/C(=C\c1ccc(F)c(Br)c1)C(=O)NC1CC1,-9,6.0,nt,nt,nt,
CN(C(=O)Oc1ccc(C(=O)c2ccc(Cl)cc2)cc1)c1ccccc1,3,0.6,9%,1,-12,
Cc1c(C)c2ccc(O[C@@H]3O[C@H](CO)[C@H](O)[C@H](O)[C@H]3O)cc2oc1=O,3,-2.4,nt,nt,nt,
Cc1cc(C)n2[nH]c(=O)c(N=Nc3cccc(Cl)c3)c2n1,96,6.7,-6%,-10,-40,
CCOc1cc(/C=N/NC(=O)CN2CCCCC2)ccc1OCc1ccccc1,4,nt,6%,-8,37,
CC1(C)Cc2cccc(Oc3ccc(S(=O)(=O)N4CCCC4)cn3)c2O1,-3,2.2,3%,-3,nt,
O=C(NCC(c1ccco1)N1CCCC1)c1ccccc1F (stereo unspecified),16,-0.5,2%,1,-13,
Cc1ccccc1NC(=S)N(Cc1cccnc1)Cc1ccco1,3,0.6,0%,3,-17,
COc1ccc(-c2cc(C(=O)N/N=C/c3sccc3C)c3ccccc3n2)c(OC)c1,-7,-19,3%,-9,9,
O=C(NC(=S)N1CCc2ccccc21)c1ccccc1,94,2.8,2%,-11,-9,
COc1ccc(/C=N/n2cnnc2)cc1COc1ccccn1,7,-1.6,-2%,-1,-10,
CC(OC(=O)CCCOc1ccccc1)C(=O)Nc1ccc(Cl)cn1 (stereo unspecified),57,2.2,nt,nt,nt,
COCCNC(=O)C(c1ccc(C)cc1)N(C(=O)C(=O)NC1CCCC1)c1ccc2c(c1)OCCO2 (stereo unspecified),-1,2.5,2%,1,nt,
Nc1nc(CN2CCN(C(=O)c3ccco3)CC2)nc(Nc2cccc(Cl)c2)n1,-2,-5.1,13%,-2,nt,
O=C(NCc1ccncc1)Nc1ccc(F)cc1,-1,-1.0,-1%,-2,-18,
N#C/C(=C(/O)COC(=O)c1ccc(C#N)cc1)c1nc2ccccc2s1,1,0.0,-5%,12,-17,
CN(CC(=O)Nc1sccc1C#N)C1CCCCC1,1,-2.1,7%,9,-8,

# Four structures from above, arranged by length of the SMILES, descending:
SMILES,Mtb bLac sens,RecA intein inh,Mtb H37Rv,Arbovirus inh,YopH inh,others
COC(=O)c1c(C(=O)OC)c(-c2cccc(Cl)c2)n2c1CS(=O)(=O)C2,-8,0.7,nt,nt,nt,
Nc1nc(CN2CCN(C(=O)c3ccco3)CC2)nc(Nc2cccc(Cl)c2)n1,-2,-5.1,13%,-2,nt,
N#C/C(=C\c1ccc(F)c(Br)c1)C(=O)NC1CC1,-9,6.0,nt,nt,nt,
O=C(NCc1ccncc1)Nc1ccc(F)cc1,-1,-1.0,-1%,-2,-18,

# Carrying on.
SMILES,Mtb bLac sens,RecA intein inh,Mtb H37Rv,Arbovirus inh,YopH inh,others
COc1ccc(/C=N/NC(=O)CNc2c(Br)cc(C)cc2Br)c(C(=O)O)c1OC,4,-1.3,-8%,9,nt,
COc1ccc(NC2=C(C(C)=O)C(c3ccc(N(C)C)cc3)C(C(C)=O)C(C)(O)C2)cc1 (stereo unspecified),86,-2.7,92%,8,nt,
O=C(Nc1c(Cl)ccc2nsnc12)c1ccco1,-3,0.5,1%,2,nt,
Cc1ccccc1NS(=O)(=O)c1ccc2[nH]cc(C(=O)NCCCN3CCOCC3)c(=O)c2c1,-8,1.1,-2%,11,-22,
CCOC(=O)N1CCN(Cc2c(NC(=O)c3ccco3)sc(C)c2C)CC1,4,-3.0,-1%,-7,nt,
O=C1CCCC2=C1Sc1ccc(Cl)cc1N2,-14,-7.8,-1%,nt,nt,
C#CC(C)OC(=O)C(C)NC(=O)c1ccccc1 (stereo unspecified),-1,-1.3,-24%,nt,nt,
c1ccc(-c2noc(CN3CCN(c4ccccc4)CC3)n2)cc1,-7,3.0,-2%,13,nt,Arbovirus inh repeat=10
Cc1ccc(-c2nc(CS(=O)CC(=O)NCCN3CCOCC3)c(C)o2)cc1 (stereo unspecified),0,0.6,-5%,10,nt,Arbovirus inh repeat=3
Cc1ccnc2nc(C(=O)OCC(=O)NCCc3ccc(Cl)cc3)nn12,4,0.7,6%,-8,-14,
COc1ccc(C2(C(=O)Nc3ccc(S(=O)(=O)Nc4nc(C)cc(C)n4)cc3)CCCC2)cc1OC,-8,-2.1,2%,-4,-13,
CC(C(=O)O)N1C(=O)C2C3c4ccccc4C(c4ccccc43)[C@@H]2C1=O (stereo partly specified),-1,0.1,nt,nt,nt,
CC(C)CCNC(=O)C1CCN(c2nc3ccccc3o2)CC1,-11,1.6,3%,1,-26,
O=C(Nc1cccnc1)c1ccccc1Oc1ccccc1,50,4.6,11%,0,20,
COc1ccc(N=Nc2ccc3ccccc3c2)c(O)c1,51,-1.3,nt,nt,nt,
COc1ccc(NC(=O)c2ccc(-n3cccn3)nc2)cc1,-7,-3.8,3%,-5,-42,
COCCNC(=O)c1c(N)n(/N=C/c2cccs2)c2nc3ccccc3nc12,58,-13,8%,12,-7,
Cc1noc(C)c1COC(=O)c1cccc(S(=O)(=O)N2c3ccccc3CC2C)c1 (stereo unspecified),-1,9.6,-3%,1,-13,
COC(=O)c1cn(NC(=O)COc2ccc(Cl)cc2)c(=O)c2ccccc12,-2,-5.1,6%,-7,nt,
Cc1ccc2cc(S(=O)(=O)NCCCN3CCOCC3)ccc2c1,5,0.1,0%,0,nt,
O=C(NCCCO)c1nc2ccccc2s1,2,-0.5,5%,-4,-31,
CCN1CCN(c2c(Cl)cccc2NC(=O)c2ccc([N+](=O)[O-])o2)CC1,100,-2.9,nt,nt,nt,
COc1cccc(S(=O)(=O)NCc2ccc(C(=O)NCc3ccco3)cc2)c1,10,4.3,-2%,0,-3,
COc1ccc(O)c(-c2c(-c3ccc(Cl)cc3)n[nH]c2C)c1,15,nt,11%,10,-20,

# Entries shown so far containing fluorine (three):
SMILES,Mtb bLac sens,RecA intein inh,Mtb H37Rv,Arbovirus inh,YopH inh,others
N#C/C(=C\c1ccc(F)c(Br)c1)C(=O)NC1CC1,-9,6.0,nt,nt,nt,
O=C(NCC(c1ccco1)N1CCCC1)c1ccccc1F (stereo unspecified),16,-0.5,2%,1,-13,
O=C(NCc1ccncc1)Nc1ccc(F)cc1,-1,-1.0,-1%,-2,-18,

# Following part.
SMILES,Mtb bLac sens,RecA intein inh,Mtb H37Rv,Arbovirus inh,YopH inh,others
CC(C)(C)C(=O)Oc1ccc2cc(-c3ccc4ccccc4n3)c(=O)oc2c1,14,-12,18%,10,-9,
CCSc1ccc(-c2cccc([N+](=O)[O-])c2)nn1,-3,2.6,-8%,1,nt,
CC(C)N(C(=O)Cn1cc(S(=O)(=O)CC(=O)Nc2ccccc2)c2ccccc21)C(C)C,6,-5.9,nt,nt,nt,
COc1ccccc1NC(=O)CCN1C(=O)c2ccccc2C1=O,-3,-2.1,nt,nt,nt,
Cc1ccc(S(=O)(=O)Nc2ccc(N(C)C)cc2)cc1,11,-2.2,20%,5,nt,
O=C(NCCCn1ccnc1)C(=O)c1c[nH]c2ccccc12,-2,-1.6,-11%,5,nt,
COc1ccc(-c2nc3ccc([N+](=O)[O-])cc3[nH]2)cc1,3,2.1,12%,-4,-22,
O=C(c1nnc(Cc2ccc(Cl)cc2)o1)N1CCc2ccccc2C1,89,3.2,2%,-1,1,Arbovirus inh repeat=2
Cc1onc(-c2c(Cl)cccc2Cl)c1C(=O)c1c[nH]c(C(=O)NCCCN2CCOCC2)c1,-6,2.1,0%,13,-6,
Cc1ccc(S(=O)(=O)c2c(COC(=O)c3ccccc3Cl)c(-c3ccccc3)nn2C)cc1,-12,-2.7,-11%,4,4,
CCOc1cc(CN2CCc3c([nH]c4ccccc34)C2)ccc1OC,-4,-1.8,nt,nt,nt,
CC(C)C(NS(=O)(=O)c1cc(C(=O)O)ccc1Cl)C(=O)O (stereo unspecified),2,2.7,-26%,2,nt,
OC(CNCc1cccc(Br)c1)c1ccccc1 (stereo unspecified),-1,-3.0,1%,9,nt,
COC(CNC(=O)c1ccc2nc(-c3cccs3)c(-c3cccs3)nc2c1)OC,-1,-11,3%,0,-30,
Cc1ccc(/C=C/C(=O)NCCc2cccc(Cl)c2)o1,4,5.6,nt,nt,nt,
COc1ccc(Cl)cc1NC(=O)c1cnc2n(c1=O)CCS2,4,-0.5,2%,3,nt,Arbovirus inh repeat=-6
CCn1cc(C(=O)N[C@@H](C)C(=O)NCCO)c(=O)c2cc3c(cc21)OCO3,2,-1.0,nt,nt,nt,
CC(C)(C)SCCNC(=O)/C=C/c1ccccc1,-2,1.1,-11%,nt,nt,
CCCC12CN3CC(CCC)(CN(C1)C3c1ccco1)C2=O (stereo unspecified),-4,-1.2,-4%,nt,nt,
CN1CCc2c(n(CC(O)CN3C(=O)c4ccccc4S3(=O)=O)c3ccccc23)C1=O (stereo unspecified),nt,nt,1%,7,-29,
COC(=O)c1c(/N=C/NOCc2ccc(Cl)cc2)sc2c1CCN(c1ncc(C(F)(F)F)cc1Cl)C2,-4,-2.9,0%,25,-9,
CCC(C)Sc1nc2c(c(=O)[nH]c(=O)n2C)n1C (stereo unspecified),-3,-1.0,-7%,8,-23,
COc1ccc(OC)c(/C=C/C(=O)N(C)CC(=O)Nc2cc(C)ccc2C)c1,-1,-30,0%,-3,-27,
O=C(O)CCC(=O)c1c[nH]c2ccccc12,6,1.3,0%,6,-2,

# In the list so far, four have a COOH group:
SMILES,Mtb bLac sens,RecA intein inh,Mtb H37Rv,Arbovirus inh,YopH inh,others
COc1ccc(/C=N/NC(=O)CNc2c(Br)cc(C)cc2Br)c(C(=O)O)c1OC,4,-1.3,-8%,9,nt,
CC(C(=O)O)N1C(=O)C2C3c4ccccc4C(c4ccccc43)[C@@H]2C1=O (stereo partly specified),-1,0.1,nt,nt,nt,
CC(C)C(NS(=O)(=O)c1cc(C(=O)O)ccc1Cl)C(=O)O (stereo unspecified),2,2.7,-26%,2,nt,
O=C(O)CCC(=O)c1c[nH]c2ccccc12,6,1.3,0%,6,-2,

# Additional results:
SMILES,Mtb bLac sens,RecA intein inh,Mtb H37Rv,Arbovirus inh,YopH inh,others
CS(=O)(=O)N1CCN(c2ccc([N+](=O)[O-])c(NCc3ccc(Cl)cc3)c2)CC1,-3,2.3,9%,-44,-19,
CCCc1cc(C(=O)N2CCCC(N3CCN(c4ccccc4C)CC3)C2)n(C)n1 (stereo unspecified),1,0.0,nt,nt,nt,
CC(=O)Nc1ccc(CNC(=O)C[N+]2(C)CCOCC2)cc1,5,-3.0,2%,0,nt,
COc1ccccc1NC(=O)C1=C(C)NC2=C(C(=O)CCC2)C1c1ccc2c(c1)OCO2 (stereo unspecified),6,-0.6,-1%,0,-16,
O=c1ccc(-c2ccc(S(=O)(=O)NCC3CCN(Cc4ccccc4F)CC3)s2)n[nH]1,-11,-1.7,nt,nt,nt,
O=C(Nc1ccc(Nc2ccccc2)cc1)c1ccc(Cl)cc1[N+](=O)[O-],-6,-0.5,nt,nt,nt,
CCOC(=O)c1cc2occc2n1CC(=O)N1CCCc2ccccc21,-3,1.8,7%,-5,2,
CCN(CC)CCNC(=O)c1sc2nc(-c3ccccc3)cn2c1C,-2,7.7,nt,-14,nt,Arbovirus inh repeat=2
CCOC(=O)CCc1cccc2c1CCC2=O,-24,0.3,1%,-2,8,
COc1cc(/C=N/NC(=O)C2c3ccccc3Oc3ccccc32)ccc1O,-2,-33,3%,-5,-35,
COCCNc1nc2c(S(=O)(=O)c3cc(C)ccc3C)nnn2c2ccccc12,2,-0.5,9%,-3,nt,
COc1ccc(C(=O)CSc2cc(C)[nH]c(=O)n2)cc1,2,5.1,nt,nt,nt,
